High-throughput results as filed in PubChem.
HPGD inh: HPGD (human) dehydrogenase inhibition; purified HPGD, NADH fluorescence kinetic, PGE2 substrate; Potency, µM, for the others: at the highest dose activity change, negative = inhibition, hits mostly inhibitors; hit rate 4.3% among 150,000; active = well fitted inhibition curve with a large enough effect (not every such curve was filed as active); inconclusive = small, poorly fitted or top-dose-only effect, or another doubt; inactive = no such curve, though single readings can be large or run the other way;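 further: top concentration of the series not given in the record; plate controls included wells without enzyme; inactives centre near -10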
Target sequence (P15428 whole entry, looked up): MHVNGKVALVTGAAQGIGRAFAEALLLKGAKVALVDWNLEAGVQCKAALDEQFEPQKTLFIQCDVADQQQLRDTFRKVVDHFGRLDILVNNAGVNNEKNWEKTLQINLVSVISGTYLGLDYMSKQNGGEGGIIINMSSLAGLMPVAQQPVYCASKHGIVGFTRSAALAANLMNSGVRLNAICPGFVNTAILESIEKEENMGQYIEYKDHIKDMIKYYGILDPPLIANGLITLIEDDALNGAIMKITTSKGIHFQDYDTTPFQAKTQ
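NADH formation kinetics: reaction with 30 uM PGE2 and 1 mM NAD+ (final), 20 nM enzyme, Tris-HCl pH 8 with Tween 20, after 15 min compound preincubation at room temperature. Fluorescence change, last versus first of five reads.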
Active calls of the source: *; u = inconclusive. On the % scale 0 is the no-effect control and ±100 the full control effect; potency means the concentration at half of the fitted maximal effect.

HPGD inh	mol
-6.5%	O=C(COC(=O)/C=C/c1cccc(C(F)(F)F)c1)NCc1ccc(F)cc1
-6.7%	CN(C(=O)c1ccncc1)c1nnc(-c2cccnc2)s1
-11.0%	Nc1nonc1-n1nnc(C(=O)O)c1-c1cccs1
-12.8%	CCN(CC)C(=O)COc1ccc(Br)cc1Cl
-13.8%	Cc1cc(C)cc(OCC(=O)OCC(=O)c2ccc3c(c2)NC(=O)CO3)c1
-1.2%	Cc1nc2ccccn2c1P(=Nc1ccccc1)(N(C)C)N(C)C
u	O=C(O)c1ccc(CN(c2ccccn2)S(=O)(=O)c2ccccc2)cc1
-16.5%	O=C1Nc2ccc(F)cc2C12Nc1ccccc1-c1nnc(SCc3ccccc3F)nc1O2 (centres undefined)
-4.9%	Cc1cc(NC(=O)c2cc(C)on2)no1
0.7%	CCCC(=O)OC1(C(=O)CO)CCC2C3CCC4=CC(=O)CCC4(C)C3C(O)CC21C (centres undefined)
-25.6%	Cc1cc(C(F)(F)F)nc(SCC(=O)Nc2ccccc2)n1
u	CCCOc1ccc(C2c3c(oc4cc(C)c(C)cc4c3=O)C(=O)N2CCCN2CCOCC2)cc1 (centres undefined)
-19.7%	Cc1cccc(/C(N)=N/OC(=O)c2ccc(F)cc2)c1
-3.6%	O=C(CN1CCN(S(=O)(=O)c2cc(Cl)ccc2Cl)CC1)Nc1ccc2c(c1)OCCO2
u	CCOC(=O)c1nn(-c2ccccc2)c2nc(-c3ccc(OC)cc3)c(C#N)c(=O)n12
0.2%	Cc1ccc(OCC(=O)NC(=S)Nc2cccc(C)n2)cc1
-9.5%	COC(=O)C1C(=O)CC(C)(O)C(C(=O)OC)C1c1ccc2c(c1)OCO2 (centres undefined)
-7.9%	C=CCn1c(COc2cccc(C)c2)nnc1SCC(=O)c1c[nH]c2c(CC)cccc12
-14.1%	COc1ccc(C(=O)C[N+]2(C)CCOCC2)cc1
-8.0%	CC(C)C(=O)NC(=S)NCC(=O)c1ccccc1
-26.0%	CCOc1ccc(C(=O)Nc2cc(-c3nc4ccccc4[nH]3)ccc2C)cc1[N+](=O)[O-]
-0.3%	Cc1cc(C)nc(NCC(O)CNc2ccccc2Cl)n1 (centres undefined)
-12.9%	Cc1ccc(N2C(N)=C(C#N)C(c3cccnc3)C3=C2CCCC3=O)cc1 (centres undefined)
-24.3%	CSc1ccc(S(=O)(=O)NCc2ccccc2)cc1
0.8%	FC(F)(F)c1cc(Oc2ccccc2Cl)nc(-c2ccccn2)n1
-6.5%	COCc1nnc(NS(=O)(=O)c2ccc(Br)cc2)s1
-3.6%	Cc1ccc(NCc2ccccc2F)cc1
-10.7%	Cc1onc(-c2ccccc2)c1C(=O)N1CCCN(C(=O)c2c(-c3ccccc3)noc2C)CC1
-14.9%	CCn1cc(S(=O)(=O)CC(=O)Nc2cc(C)ccc2C)c2ccccc21
-24.2%	CCCn1c(O)c(CN2CCCCC2)c(C)c(C#N)c1=O

5 entries drawn at random from those above:
HPGD inh	mol
-24.3%	CSc1ccc(S(=O)(=O)NCc2ccccc2)cc1
-4.9%	Cc1cc(NC(=O)c2cc(C)on2)no1
u	CCOC(=O)c1nn(-c2ccccc2)c2nc(-c3ccc(OC)cc3)c(C#N)c(=O)n12
-19.7%	Cc1cccc(/C(N)=N/OC(=O)c2ccc(F)cc2)c1
-24.2%	CCCn1c(O)c(CN2CCCCC2)c(C)c(C#N)c1=O

Four entries already listed, arranged by the value under HPGD inh, lowest first:
HPGD inh	mol
-26.0%	CCOc1ccc(C(=O)Nc2cc(-c3nc4ccccc4[nH]3)ccc2C)cc1[N+](=O)[O-]
-19.7%	Cc1cccc(/C(N)=N/OC(=O)c2ccc(F)cc2)c1
-12.8%	CCN(CC)C(=O)COc1ccc(Br)cc1Cl
-8.0%	CC(C)C(=O)NC(=S)NCC(=O)c1ccccc1

Continuation.
HPGD inh	mol
-16.5%	CCCc1cc(=O)[nH]c(SCC(=O)c2ccc3c(c2)OCCO3)n1
1.8%	Cc1ccc(C(=O)c2cn(-c3ccc(F)c(Cl)c3)nn2)cc1
-25.1%	Cc1ccc(C(=O)Nc2nc(-c3cccnc3)cs2)o1
-13.1%	CCCCc1c(O)n2c(nc3ccccc32)[nH]c1=O
-27.9%	O=C(COc1ccccc1)NNC(=O)c1cc2ccccc2oc1=O
-9.8%	Cc1cccc(OCCCn2ccnc2)c1
-29.9%	COc1cc(/C=C2/C(=N)N3C=CSC3=NC2=O)ccc1OCCCOc1ccccc1C
-13.6%	COc1cccc(C(=O)Nc2cc3c(cc2Cl)OCCCO3)c1
-1.5%	O=C(NCCCN1CCOCC1)c1ccco1
-6.9%	CCOc1ccc(NC(=O)c2ccc3c(c2)N(Cc2ccc(F)cc2)C(=O)CS3=O)cc1 (centres undefined)
-11.1%	CCn1c(SCC(=O)N2CCOCC2)nc2c(c1=O)SC(C)C2 (centres undefined)
-26.6%	Fc1c(F)c(C(F)(F)F)c(F)c(F)c1N1CCN(c2ccc3nnc(C(F)(F)F)n3n2)CC1
-7.8%	O=C(c1cc2n(n1)C(C(F)(F)F)CC(c1ccc(F)cc1)N2)N1CCCC1 (centres undefined)
-10.9%	COC(=O)c1cc(OC)c(OC)c(OC)c1NC(=O)c1ccc(S(=O)(=O)N(C)C)cc1
-15.1%	O=C(CCCc1nc(-c2ccc(Cl)cc2)no1)N1CCOCC1
-21.6%	O=C(Nn1c(O)c(C=C2N=c3ccccc3=N2)sc1=S)c1ccc(Cl)cc1
-21.3%	CCOc1cc(/C=C2\N=C(C)OC2=O)cc(Br)c1OCCc1ccccc1
-7.6%	CC1=C(C(=O)N(C)CCC#N)C2(CCCCC2)OC1=O
-22.9%	CCOc1ccc(C(OC(=O)c2ccco2)C(=O)NCc2ccc(C)cc2)cc1 (centres undefined)
-8.1%	Nc1ncnc2nc(SCCN3CCCCC3)[nH]c12
-18.4%	CCc1ccccc1N1CCN(S(=O)(=O)c2cc(OC)ccc2OC)CC1
-20.9%	c1ccc2c(Nc3ccncc3)nc(-c3ccoc3)nc2c1
-6.9%	Cc1cc(C)n2nc(C(=O)OCC(=O)c3cc(C)n(C)c3C)nc2n1
-10.4%	COCCOC(=O)C1=C(C)N=C2SCCC(=O)N2C1c1ccc(OC(=O)c2ccco2)cc1 (centres undefined)
-19.4%	COc1cc(NC(=O)Nc2cccc(Cl)c2)c(OC)cc1NC(=O)CN1CCCCC1
-11.3%	CCCn1c(C)cc(C(=O)CSc2nnc3n(CCC)c(=O)c4ccccc4n23)c1C
-4.5%	CCCCCCCC/C=C\C/C=C\C=C\C(O)CCCC(=O)O (centres undefined)
-6.6%	COC(=O)c1sccc1NC(=S)N1CCCC(C)C1 (centres undefined)
-16.7%	CC(=O)N1CCC2(CC1)CCN(c1cccc(-c3ccccc3)c1)CC2
-2.2%	O=C(NCc1ccco1)C(=O)NCC1OCCN1S(=O)(=O)c1ccc(F)cc1 (centres undefined)

Additional results.
HPGD inh	mol
-3.9%	CCCN(CCC)CCCNC(=O)CC(C(=O)N1CCc2ccccc21)n1ccnc1 (centres undefined)
-5.9%	Nn1c(COc2ccc(Cl)cc2)nc2ccccc2c1=O
-13.5%	O=c1[nH]c2ccccc2n1Cc1ccccc1
-16.8%	CC(=O)Nc1ccc(NC(=O)c2ccc(C3SCC(=O)N3CCc3ccccc3)cc2)cc1 (centres undefined)
-28.5%	CC1CCc2c(sc(NC(=O)c3ccc(Cn4cc(Br)cn4)o3)c2C(N)=O)C1 (centres undefined)
-3.0%	COc1ccccc1CNC(=O)Cn1cc2c(n1)CCCC2
-7.5%	OC(Cn1nnc2ccccc21)Cn1c(C(F)(F)F)nc2ccccc21 (centres undefined)
0.9%	COC(=O)C1(O)CC(C(C)C)=NN1C(=O)c1ccc(Cl)cc1 (centres undefined)
2.5%	O=C(c1cccc(F)c1)N1CCN(Cc2ccco2)CC1
-19.0%	O=c1cc(CNC2CCCCC2)c2ccccc2[nH]1
-0.6%	Cc1cc(NC(=O)CSCCc2ccncc2)no1
0.0%	CCOC(=O)Cc1csc(NC(=O)C(C)(C)CC)n1
-12.9%	CCCOc1ccc2oc(=O)c3c(c2c1)CCCN3C(=O)CN1CCCC(C(=O)OCC)C1 (centres undefined)
-12.4%	NS(=O)(=O)c1ccc(S(=O)(=O)NCCc2ccccc2)cc1
-10.3%	COc1ccc(OC)c(N/C(=N\c2nc(C)cc(C)n2)NC(=O)c2ccco2)c1
1.1%	CCOc1ccc(NC(=O)N2CCC(C(N)=O)(N3CCCCC3)CC2)cc1
-20.3%	Cc1ccc(NC(=S)NC(NC(=O)Cc2cccc3ccccc23)C(Cl)(Cl)Cl)cc1 (centres undefined)
u	COC(=O)c1cc2c([nH]c3ccccc32)c(C)n1
u	COc1ccc2[nH]c(-c3ccccc3)c(CCNC(C)=O)c2c1
-25.5%	CCOc1ccc(CN(C(=O)c2cc3ccccc3oc2=O)C2CC2)cc1
u	S=c1nc[nH]c2nc[nH]c12
-6.1%	COc1ccc(OC)c(CNC(=O)C2CCN(C(=O)N(C)C)CC2)c1
-14.9%	CCc1cc[n+](-c2nc3ccccc3nc2C(=C=[N-])C#N)cc1
-4.9%	CC(C)P(=O)(c1cccc(C(=O)O)c1)C(C)C
-29.4%	O=C(c1ccco1)N1CCC2(CC1)CCN(c1ccccn1)CC2
u	Cc1ccc(C(=O)Nc2c(C)cc(-c3ccc(Cl)cc3)oc2=O)cc1
-0.9%	Cc1cccc(C)c1OCC(O)Cn1ccnc1C (centres undefined)
u	CC(C)Cc1nc(N2CCN(C(=O)c3ccccc3)CC2)c(C#N)c2c1CCC2
-14.1%	Cc1ccccc1C1C2=C(Nc3[nH]n(-c4ccccc4)c(=O)c31)c1ccccc1C2=O (centres undefined)
-8.0%	O=C1/C(=C\c2cccs2)Sc2ccc3ccccc3c21

(next part)
HPGD inh	mol
-9.5%	Cc1cccc(C)c1NC(=O)Nc1cccs1
-26.0%	Fc1ccccc1Nc1nc2ccccc2n2nnnc12
-16.9%	C=CCN1C(=O)C(O)(CC(=O)c2ccc(-n3cccc3)cc2)c2ccccc21 (centres undefined)
-11.2%	Cc1cc(N(CCO)CCO)nc(-n2nc(C)cc2C)n1
-10.3%	CCOc1cc(NC(=S)NCc2ccco2)c(OCC)cc1NC(C)=O
-10.9%	COc1ccc(NC(=O)C(=O)NCCO)cc1Cl
-4.6%	Cc1ccnc(NC(=O)c2cccc(NS(=O)(=O)c3ccccc3C)c2)c1
u	O=c1nc2c(O)cccn2c2c1c(=O)[nH]c1ccccc12
-7.8%	CCCCCNS(=O)(=O)c1cc(C)ccc1OC
8.91µM*	COc1cc(SC#N)ccc1N=Cc1c(C)[nH]n(-c2ccc(C)cc2C)c1=O
-7.7%	CC(C)Cn1cnc2c(SCc3ccccn3)nc(N)nc21
-29.6%	CCOC(=O)N1CCN(C(=O)Nc2ccc3oc(C)nc3c2)CC1
-2.7%	Cc1cc(C)cc(N(CC(=O)N2CCC(C)CC2)S(=O)(=O)c2ccccc2)c1
-10.5%	O=C(c1ccccc1)c1ccc(OCC(O)CN2CCN(Cc3ccccc3)CC2)cc1 (centres undefined)
-12.8%	Cc1onc(-c2ccccc2Cl)c1C(=O)NCc1ccccc1
-9.6%	C[N+](C)(C)CCNC(=O)c1c(O)c2c([nH]c1=O)CCCC2
-1.1%	CN(CCNC(=O)c1ccc(N2CCCC2=O)cc1)CCc1ccccc1
-9.7%	COc1cc(CNCCCN2CCOCC2)cc(Br)c1OCC(=O)N1CCCCC1
12.6µM*	O=C1CC(Sc2ncn[nH]2)C(=O)N1c1ccccc1 (centres undefined)
-18.6%	COc1cc(C(=S)N2CCOCC2)cc(OC)c1OC(=O)c1cc([N+](=O)[O-])c(C)c([N+](=O)[O-])c1
-4.9%	CSC(=NCc1cccnc1)NS(=O)(=O)c1cccs1
-14.9%	Cc1cc(Sc2nccn2C)ncc1[N+](=O)[O-]
-12.3%	O=C(Nc1ccccc1)c1cccc(S(=O)(=O)N2CCCCC2)c1
u	COc1ccc(C)cc1NC(=O)CSc1nnc(-c2cc3cccc(OC)c3o2)n1N
-6.2%	CCC(C)(C)C(=O)Nc1ncc(S(=O)(=O)c2ccc([N+](=O)[O-])cc2)s1
-6.8%	O=C(Nc1ccc(CN2CCOCC2)cc1)c1cc2ccccc2o1
-5.5%	CC(Sc1nnc(Cc2cccs2)n1C1CCCCC1)C(=O)N1CCc2ccccc21 (centres undefined)
28.2µM*	COc1ccc(Nc2oc(COc3ccc(Cl)cc3)nc2C#N)cc1
-9.3%	CC(=O)c1ccc(N2CCN(C(=S)Nc3cccc(Cl)c3)CC2)cc1
-23.6%	COc1cccc(C2C3=C(CC(C)(C)CC3=O)OC(N)=C2[N+](=O)[O-])c1 (centres undefined)

(listing goes on)
HPGD inh	mol
-4.5%	Brc1ccc(-c2nnc3n2C2(CCCC2)Cc2ccccc2-3)o1
-10.1%	CCOC(=O)C1CN(S(=O)(=O)c2ccc(C)cc2)c2cc(S(=O)(=O)CC)ccc2O1 (centres undefined)
-9.9%	CN(C)S(=O)(=O)N1CCc2ccccc21
-14.0%	Cc1ccccc1-n1nc2c(c1NC(=O)COc1ccc(Cl)cc1)CS(=O)C2 (centres undefined)
-0.8%	Cc1ccnc(NC(=O)c2cccs2)c1
-20.5%	Cc1ccc(C(=O)c2oc3nc(C)cc(C)c3c2N)cc1
-13.8%	Cc1cc(C)nc(Sc2c(C)nn(-c3ccccc3)c2C)n1
u	CC(=O)C1C(=O)c2c(cccc2[N+](=O)[O-])C1=Nc1ccccc1C (centres undefined)
-9.1%	CCN1CCN(CCNC(=O)c2cn(C(C)c3ccccc3F)nn2)CC1 (centres undefined)
-1.9%	Cc1ccc(CNC(=O)c2ccc(NS(=O)(=O)c3c(C)noc3C)cc2)cc1
-6.1%	CCCCC1CCC(c2ccc(C(N)=O)cc2)CC1 (centres undefined)
-3.0%	CC(C)(C)OC(=O)N1CCC(c2c(C(=O)O)cnn2-c2ccccc2)CC1

Only part of the results is shown (hit frequency here may not be typical).
